# Sa ugtP lethal: growth inhibition of ugtP-null S. aureus, primary screen, RN4220 ugtP deletion, OD600 | 16 h; some inactives read as strong as hits | growth inhibition, % (no concentration beside the values) | actives 0.54% (n = 330,000) | AID 1259309, 2017;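 active = z-score under -3 and OD600 up to 0.15 on both plates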;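 note: plate controls were untreated wells for no effect and antibiotic for full effect; wells of about 80 µL received 100 nL stock; the first replicate is given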
# Mtb hypoxia rep: PubChem AID 1159583 | actives 0.1% (n = 300,000) | fluorescence inhibition, % (concentration not given with the values) | M. tuberculosis hypoxia-regulated fluorescent reporter, fluorescence;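 active = 35 to 45% if threefold the growth effect, above 45% if 1.5-fold the growth effect; inactive = the rest, general growth blockers included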;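 note: wells of about 50 µL received 100 nL stock; 0% = vehicle wells and 100% = reference inhibitor wells; whole bacteria with a GFP reporter of the hypoxia response; strong numbers were not always called active; many hits fall short of the cut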
# Sa RN4220 lethal: growth inhibition of S. aureus RN4220, primary screen, OD600 | 16 h | inhibition, % (test concentration not listed) | actives 0.33% (n = 330,000) | AID 1259311, 2017;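 active = z-score of -3 or lower and OD600 up to 0.18 on both plates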;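 note: plate controls were untreated cells for no effect and reference antibiotic for full effect; stock transfer was 100 nL into about 80 µL; one replicate is shown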
# BJeLR lethal: MLPCN primary cell-based screen for lethality selective to Ras in HRASV12 cells | actives 0.17% (n = 300,000) | BJeLR (HRASV12) viability, CellTiter-Glo ATP luminescence, 48 h; reference of the scale not given here | AID 1554, 2009 | inhibition, % (no concentration beside the values);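 active = replicate mean above 50%; inconclusive = above 50% but judged a plate artefact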;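 note: 50 nL library stock added to about 25 µL; numbers are from one replicate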
# PrP 5UTR inh: inhibition of PrP 5' UTR reporter expression; AID 488862, 2010; actives 0.35% (n = 340,000); inhibition, % (concentration not given with the values); cell-based PrP 5' UTR mRNA reporter, plate reader;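 active = every replicate at 50% or more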;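 note: 0 = median of the neutral control wells; tested in H4 reporter cells; numbers are from one replicate; inactives centre near -14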
# Bead autofluor: compound fluorescence in toxin protease inhibitor counterscreen | compound autofluorescence counterscreen, microsphere flow cytometry; hits give high values | fluorescence intensity (test concentration not listed) | actives 3.1% (n = 360,000);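 active = at least 3 SD above the mean of all compounds, about 16000 in these data; inconclusive = too few beads counted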;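 note: 100 nL of 1 mM stock went into each well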
# Mtb hypoxia rep growth: also measured in Mtb hypoxia rep; calls as there; growth inhibition, %; measured here: M. tuberculosis growth (absorbance);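 0% = vehicle and 100% = reference antibiotic; read after six days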
# Starred values were filed as active, the others as inactive; ? = inconclusive; / = no result given.
entry	structure	Sa ugtP lethal	Mtb hypoxia rep	Mtb hypoxia rep growth	Sa RN4220 lethal
1	CC1(C)CC(=O)C(C=NCCN2CCN(C(=O)Cc3ccc(F)cc3)CC2)=C(O)C1	1	2	2	2.5
2	CCN1C(=O)c2ccc(C(=O)Nc3ccc(O)cc3C)cc2C1=O	/	/	/	/
3	CCOc1ccc(N=C(NC#N)SCC)cc1	0	6	6	-2.4
4	Cc1nn(C(C)C(=O)NCCCN2CCCC2)c(=O)c2nn(-c3ccccc3)c(C)c12 (configuration not stated)	0	0	15	0.5
5	COc1ccc(-n2cc(CNCCc3cnc[nH]3)c(-c3cccc(F)c3)n2)cc1	-6	-2	2	-0.9
6	Cc1cc(C)c(S(=O)(=O)N2CCCCC2CCNC(=O)C(=O)NCc2ccco2)c(C)c1 (configuration not stated)	4	11	7	4.0
7	Cc1ccc(C2(CCNS(=O)(=O)c3ccc(C)cc3)CCOC(C(C)C)C2)cc1 (configuration not stated)	-17	10	0	18
8	Cc1nnc(SCc2nc3ccccc3nc2C)s1	0	/	/	1.9
9	CC(C)C1S/C(=N/N=C/c2cccs2)NC1=O (configuration not stated)	/	/	/	/
10	CC(C)Cc1nc2oc3c(NCC4CCCO4)ncnc3c2c2c1CCC2 (configuration not stated)	-3	3	7	0.6

entry	BJeLR lethal	PrP 5UTR inh	Bead autofluor
1	4	-5	19988*
2	5	-23	4199
3	-3	-21	13339
4	6	-2	5915
5	4	-9	2075
6	5	-2	/
7	-1	-37	2415
8	-5	-4	2100
9	5	-5	2958
10	7	-16	18869*

# Carrying on:
entry	structure	Sa ugtP lethal	Mtb hypoxia rep	Mtb hypoxia rep growth	Sa RN4220 lethal
11	Cc1cc(=O)n2[nH]c(C(=O)O)nc2n1	-1	4	5	5.0
12	O=C1CCC/C(=N/NC(=O)c2ccc(CN3c4cccc5cccc(c45)S3(=O)=O)cc2)C1	/	/	/	/
13	Cc1nnn(C23CC4CC(CC(CC(=O)Nc5ccc(C)c(Cl)c5)(C4)C2)C3)n1	/	/	/	/
14	Cc1ccccc1N(C(=O)Cn1nnc2ccccc21)C(C(=O)NCc1ccco1)c1ccncc1 (configuration not stated)	4	/	/	7.3
15	COC(=O)c1ccccc1NC(=O)C12CC3CC(C1)CC(n1cnc(Cl)n1)(C3)C2	-3	12	6	2.4
16	Cc1onc(-c2c(F)cccc2Cl)c1C(=O)NCc1ccccc1	9	21	6	3.2
17	Cc1ccc(/C=N/NC(=O)c2ccccn2)o1	/	/	/	/
18	Cc1nc(N/N=C/c2ccccc2)nc(N(C)c2ccccc2)c1[N+](=O)[O-]	/	/	/	/
19	O=C(CN1CCN(C(=O)c2ccccc2)CC1)Nc1cccc(S(=O)(=O)N2CCCC2)c1	-1	-3	-1	1.8
20	Cc1cc(NC(=O)COC(=O)COc2cccc3c2OC(C)(C)C3)no1	1	2	6	5.2

entry	BJeLR lethal	PrP 5UTR inh	Bead autofluor
11	14	-8	2184
12	-1	-8	7660
13	-13	-104	9441
14	2	-15	3855
15	0	-20	4752
16	2	-40	4482
17	-3	-2	10518
18	-5	-11	3804
19	/	-24	?
20	-6	-19	3830

# Other structures follow:
entry	structure	Sa ugtP lethal	Mtb hypoxia rep	Mtb hypoxia rep growth	Sa RN4220 lethal
21	CC(c1cccs1)N(Cc1ccco1)C(=S)Nc1ccc(F)c(Cl)c1 (configuration not stated)	3	9	-6	15
22	N#CN1CCC(NS(=O)(=O)c2ccc(C(F)(F)F)cc2)C1 (configuration not stated)	4	2	-3	13
23	Cc1ccc(C)c(N=Cc2c(O)c3ccccc3oc2=O)c1	11	7	-7	4.6
24	CC(=O)c1cccc(S(=O)(=O)N(CCCO)Cc2cc3ccc(C)cc3[nH]c2=O)c1	1	-7	6	0.5
25	Fc1ccc(NC(=S)Nc2ccc(Br)cc2)cc1	/	/	/	/
26	O=C(CN1CC(c2ccccc2)CC1=O)Nc1ccccc1 (configuration not stated)	1	/	/	1.3
27	O=C(C1CCCN1C(=O)c1cccs1)N1CCN(Cc2ccc3c(c2)OCO3)CC1 (configuration not stated)	11	11	5	2.3
28	O=C(c1ccccn1)C1CCCN(Cc2cn[nH]c2-c2cc3ccccc3o2)C1 (configuration not stated)	5	7	7	1.8
29	O=C(COC(=O)c1ccc(Br)o1)NCc1ccco1	2	1	9	-0.2
30	O=C(O)c1ccccc1SC1CC(=O)N(C2CCCCC2)C1=O (configuration not stated)	-1	0	-3	5.3

entry	BJeLR lethal	PrP 5UTR inh	Bead autofluor
21	6	-6	4711
22	/	-5	3524
23	-12	-4	/
24	1	-11	24495*
25	-8	-13	7425
26	-2	-16	5892
27	-6	-15	4013
28	-1	-14	2754
29	0	-22	2761
30	6	-33	5393

# (more compounds)
entry	structure	Sa ugtP lethal	Mtb hypoxia rep	Mtb hypoxia rep growth	Sa RN4220 lethal
31	COCc1ccc(CN2CCC(CO)(CC3CCCCO3)CC2)o1 (configuration not stated)	-2	6	3	12
32	CCOC(=O)c1c(C)oc2c1c(C=NCCO)c(O)c1ccccc12	0	1	2	5.8
33	COc1ccc(C/C(N)=N/OC(=O)c2ccco2)cc1OC	6	7	3	8.6
34	Cc1ccc(C)c(S(=O)(=O)N/N=C/c2ccc(N3CCOCC3)cc2)c1	/	/	/	/
35	O=C(Cn1nc(Cc2cccnc2)c2ccccc2c1=O)N1CCC2(CC1)OCCO2	7	8	7	5.4
36	COc1ccc(C(O)P(=O)(OC(C)C)c2ccc(N(C)C)cc2)c(OC)c1 (configuration not stated)	10	-8	6	4.1
37	CSc1nc(Sc2ccc(Cl)cc2)c2ccccc2n1	0	13	13	-17
38	Cc1ccc(C(=O)O)cc1NC(=O)C1CCCN1S(=O)(=O)c1cccc2nsnc12 (configuration not stated)	3	-7	3	1.9
39	Clc1ccc(-c2nsc(N3CCOCC3)n2)c(Cl)c1	3	18	0	5.4
40	CCC1(C(=O)c2ccccc2)C(c2ccc([N+](=O)[O-])cc2)C1(C(=O)OC)C(=O)OC (configuration not stated)	2	14	9	0.9

entry	BJeLR lethal	PrP 5UTR inh	Bead autofluor
31	-11	-34	4529
32	4	-6	3512
33	-7	-18	3655
34	-8	-31	4643
35	-4	-8	15567
36	0	-5	3612
37	0	-22	3355
38	-3	-1	4617
39	-7	-91	4915
40	-2	-13	2013

# An excerpt of these results, bar-delimited:
nr | molecule | Sa ugtP lethal | Mtb hypoxia rep | Mtb hypoxia rep growth | Sa RN4220 lethal | BJeLR lethal | PrP 5UTR inh | Bead autofluor
24 | CC(=O)c1cccc(S(=O)(=O)N(CCCO)Cc2cc3ccc(C)cc3[nH]c2=O)c1 | 1 | -7 | 6 | 0.5 | 1 | -11 | 24495*
25 | Fc1ccc(NC(=S)Nc2ccc(Br)cc2)cc1 | / | / | / | / | -8 | -13 | 7425
26 | O=C(CN1CC(c2ccccc2)CC1=O)Nc1ccccc1 (configuration not stated) | 1 | / | / | 1.3 | -2 | -16 | 5892
27 | O=C(C1CCCN1C(=O)c1cccs1)N1CCN(Cc2ccc3c(c2)OCO3)CC1 (configuration not stated) | 11 | 11 | 5 | 2.3 | -6 | -15 | 4013
28 | O=C(c1ccccn1)C1CCCN(Cc2cn[nH]c2-c2cc3ccccc3o2)C1 (configuration not stated) | 5 | 7 | 7 | 1.8 | -1 | -14 | 2754
29 | O=C(COC(=O)c1ccc(Br)o1)NCc1ccco1 | 2 | 1 | 9 | -0.2 | 0 | -22 | 2761
30 | O=C(O)c1ccccc1SC1CC(=O)N(C2CCCCC2)C1=O (configuration not stated) | -1 | 0 | -3 | 5.3 | 6 | -33 | 5393
31 | COCc1ccc(CN2CCC(CO)(CC3CCCCO3)CC2)o1 (configuration not stated) | -2 | 6 | 3 | 12 | -11 | -34 | 4529
32 | CCOC(=O)c1c(C)oc2c1c(C=NCCO)c(O)c1ccccc12 | 0 | 1 | 2 | 5.8 | 4 | -6 | 3512
33 | COc1ccc(C/C(N)=N/OC(=O)c2ccco2)cc1OC | 6 | 7 | 3 | 8.6 | -7 | -18 | 3655

# Following part
entry	structure	Sa ugtP lethal	Mtb hypoxia rep	Mtb hypoxia rep growth	Sa RN4220 lethal
41	Cc1cccc(/C=C2/S/C(=N/N=C3\CC4CCC3(C)C4(C)C)NC2=O)c1 (configuration not stated)	/	/	/	/
42	O=C(NCC1CCCO1)c1ccccc1-c1nc(-c2ccc(Cl)cc2)no1 (configuration not stated)	-1	6	5	3.5
43	COc1ccc(NCC(=O)NN=C2CCc3ccccc32)cc1	-1	0	8	-0.1
44	Cc1c2cnn(-c3ccccc3)c(=O)c2c(C)n1CCCC(=O)N1CCN(C2CCCCC2)CC1	12	2	7	4.6
45	COc1ccc(CN(CC2CCC(C(=O)O)CC2)C(=S)Nc2cc(C)cc(C)c2)cc1 (configuration not stated)	11	5	1	-1.7
46	Cc1ccccc1C(=O)NCC(=O)OC(C)C(=O)NCc1ccco1 (configuration not stated)	1	-4	1	1.7
47	O=C(C1=C[C@@H](c2coc3ccccc3c2=O)C[C@@H](OCc2ccc(CO)cc2)O1)N1CCN(Cc2ccccc2)CC1	/	/	/	/
48	Cc1nn(C(C)C(=O)N2CCCC2)c(=O)c2nn(-c3ccccc3)c(C)c12 (configuration not stated)	/	/	/	/
49	CCC(=O)N/N=C/c1ccc(OS(=O)(=O)c2ccccc2)cc1	/	/	/	/
50	CCOC(=O)C1CCN(C(=O)c2ccc(OCC(=O)Nc3cccc(C(F)(F)F)c3)c(OC)c2)CC1	-3	6	-3	4.8

entry	BJeLR lethal	PrP 5UTR inh	Bead autofluor
41	0	-1	2646
42	12	-40	7436
43	/	/	/
44	9	-1	4309
45	-4	3	3067
46	-10	-2	?
47	6	-8	4382
48	-4	-15	4497
49	2	-14	2114
50	11	-33	?

# (list continues)
entry	structure	Sa ugtP lethal	Mtb hypoxia rep	Mtb hypoxia rep growth	Sa RN4220 lethal
51	CCN(CC)CCN1C(=O)C(=O)/C(=C(/O)c2c(C)[nH]c(C(=O)OC)c2C)C1c1ccc(OC)cc1 (configuration not stated)	1	-1	-8	2.0
52	O=C(NCCCN1CCCC1)Nc1ccc(F)cc1	22	6	7	4.2
53	Cc1ccc2c(Cl)cc(Cl)c(OCC(=O)O)c2n1	2	7	1	0.3
54	COc1ccc(/C=N/Nc2nc(N3CCCCC3)nc(N3CCCCC3)n2)cc1[N+](=O)[O-]	/	/	/	/
55	CCC1Oc2ccc(C)cc2N(CC(=O)N2CCCC2)C1=O (configuration not stated)	-2	0	-13	-2.0
56	CCOc1ccccc1NC(=O)CSc1n[nH]c(N)n1	7	15	8	2.2
57	O=C(NCc1ccco1)C(c1ccc(F)cc1)N(CC1CCCO1)C(=O)Cn1nnc2ccccc21 (configuration not stated)	-3	/	/	-0.9
58	CCOC(=O)C1CCN(C(=O)CC2C(=O)N(Cc3ccccc3)C(C)c3nc4ccccc4n32)CC1 (configuration not stated)	8	5	7	-0.5
59	Oc1ccc(-c2nc(-c3ccc(F)cc3)c(-c3ccncc3)[nH]2)cc1	82	0	-1	-12
60	CNC(=O)c1c[nH]c2ccc(S(=O)(=O)Nc3ccccc3F)cc2c1=O	4	-2	14	1.5

entry	BJeLR lethal	PrP 5UTR inh	Bead autofluor
51	-3	-28	12135
52	-3	-10	3584
53	3	-3	5185
54	-3	-21	2542
55	2	-17	4322
56	-3	-8	5215
57	-2	-17	3600
58	-8	-14	8170
59	/	14	4366
60	-8	-5	3818

# Carrying on.
entry	structure	Sa ugtP lethal	Mtb hypoxia rep	Mtb hypoxia rep growth	Sa RN4220 lethal
61	CN(C)S(=O)(=O)c1cccc(NC(=O)COC(=O)c2ccc3c(c2)OCO3)c1	17	13	7	3.8
62	CC(=O)Nc1ccc(Nc2nc(C)c([N+](=O)[O-])c(Nc3ccc(NC(C)=O)cc3)n2)cc1	2	12	3	4.9
63	Nc1cc(N)nc(SCCN2CCCCC2)n1	6	-3	-3	-1.5
64	CC1=C(C(=O)Nc2ccccc2C)C(c2ccc(C)o2)n2c(s/c(=C/c3ccccc3)c2=O)=N1 (configuration not stated)	/	/	/	/

entry	BJeLR lethal	PrP 5UTR inh	Bead autofluor
61	24	-2	2427
62	8	3	2495
63	-6	-7	3207
64	12	-30	2853

# Bioassay records (PubChem BioAssay)
